Sa growth inh – S. aureus growth inhibition. S. aureus RN4220 growth, OD600, 20 h, 42 °C; active compounds read low. 170,000 tested, 0.53% active. relative growth, % (no concentration beside the values);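 active means growth at 42 °C up to 50% and 20 or more points under that at 30 °C, or under 10% at both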;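 further: 300 nL library stock went into each well; scaled to the means of positive and negative controls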
GIV Gai3 FP – GIV-Galpha-i interaction inhibition | Galpha-i3/FITC-GIV peptide fluorescence polarization, 90 min; active compounds read low; scaled: aluminum fluoride 0%, vehicle 100% | percent of control (FP), % (test concentration not listed) | 210,000 tested, 0.42% active;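 active means replicate mean at 85% of control or lower, very high polarization wells dropped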;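 further: lower values mean more displacement of the GIV peptide from Galpha-i3; wells of about 15 µL received 100 nL stock; the first replicate is given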
Target sequence (P08753 whole entry, looked up): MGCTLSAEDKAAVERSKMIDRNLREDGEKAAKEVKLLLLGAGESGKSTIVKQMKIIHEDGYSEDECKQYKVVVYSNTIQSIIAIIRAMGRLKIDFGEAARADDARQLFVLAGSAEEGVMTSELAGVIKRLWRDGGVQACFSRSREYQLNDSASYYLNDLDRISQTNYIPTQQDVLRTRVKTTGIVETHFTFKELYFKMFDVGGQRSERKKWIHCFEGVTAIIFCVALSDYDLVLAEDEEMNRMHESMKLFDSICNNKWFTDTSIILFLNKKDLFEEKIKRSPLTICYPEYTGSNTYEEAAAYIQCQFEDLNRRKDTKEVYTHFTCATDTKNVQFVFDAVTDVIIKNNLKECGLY
Sa growth inh second temp – recorded beside Sa growth inh, whose call it bears; relative growth, %; measured here: growth at 30 °C;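 optical density after 20 h as mean of two plates; 100% = untreated growth and lower means inhibition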
Numbers without * were called inactive; . = not tested or not shown. These rows are one share of the data, so the mix of outcomes need not match the whole.

SMILES | Sa growth inh | GIV Gai3 FP | others
CC[C@@H]1C=CC=CC[C@H](C)[C@@H](O)[C@@H](C)C(=O)[C@H](C)[C@@H](O)[C@H](C)C(=O)[C@H](C)[C@@H](O)[C@H](C)C=CC(=O)O[C@H]2[C@@H](C)[C@@H](CC1)O[C@@]1(CC[C@@H](C)[C@@H](C[C@H](C)O)O1)[C@@H]2C | 92 | . | Sa growth inh second temp=86
CN1CC[C@]2(c3cccc(O)c3)Cc3nc4ccccc4cc3C[C@H]2C1 | 81 | . | Sa growth inh second temp=79
O=C(Nc1ccc(Br)cc1F)c1cccn(Cc2ccc(F)cc2)c1=O | . | 103
CC(=O)OC1N=C(c2ccccc2)c2ccccc2NC1=O (stereo not drawn) | . | 112
COc1cccc(CNC(=O)N2CCC3(C2)C(=O)N(C)c2ccc(OC)cc23)c1 (stereo not drawn) | . | 101
CC(=O)N1CC(=O)Nc2ccc(Br)cc2C1c1ccccc1Cl (stereo not drawn) | . | 105
O=C1C[N+]2(CC(=O)N3c4ccccc4Sc4ccccc43)CCC1CC2 | . | 118
CN1CCN(Cc2cc(C3CC3)on2)CC1 | . | 103
Cc1ccc2c(c1)C(c1ccccc1)=NCC(=O)N2 | . | 105
CCOC(=O)C1=C(N)Oc2n[nH]c(-c3cccc([N+](=O)[O-])c3)c2C12C(=O)Nc1ccccc12 (stereo not drawn) | . | 123
COCCOC(=O)C1=C(N)Oc2c(c(=O)oc3ccccc23)C1c1ccc(F)cc1 (stereo not drawn) | . | 126
COc1cc(C2C(C#N)=C(N)Oc3c2c(=O)oc2ccccc32)ccc1OC(=O)c1ccco1 (stereo not drawn) | . | 106
S=P(Nc1ccccc1)(Nc1ccccc1)Nc1ccccc1 | . | 108
Cc1ccc(C2c3cccn3-c3ccccc3CN2S(=O)(=O)c2cnn(C(F)F)c2C)cc1 (stereo not drawn) | . | 102
COc1ccc2c(c1)C1(CCN(C(=O)NC(C)(C)C)C1)C(=O)N2C (stereo not drawn) | . | 102
CCOC(=O)N(c1ccc(OC)cc1)P1(=S)OCC(C)O1 (stereo not drawn) | . | 100
N#CC1=CN(c2ccc(F)c(F)c2)c2cccc(F)c2S1(=O)=O | . | 102
N#CC1=C(N)Oc2c(c(=O)oc3ccccc23)C1c1ccc(N2CCOCC2)c([N+](=O)[O-])c1 (stereo not drawn) | . | 109
CCOP(=O)(OCC)C(NC(=O)c1ccc(OC)cc1)C(Cl)(Cl)Cl (stereo not drawn) | . | 129
N#CC1=C(N)Oc2c(c(=O)oc3ccccc23)C1c1ccc(Cl)c([N+](=O)[O-])c1 (stereo not drawn) | . | 112
CC(C)n1c(=O)[nH]c2c(C(=O)N3CCC4(CC3)OCCO4)snc2c1=O | . | 100
CCC(=O)C1=C(C)OC(N)=C(C(=O)OC)C12C(=O)Nc1ccccc12 (stereo not drawn) | . | 112
NC(=O)c1ccc(NC(=O)c2cccn(Cc3ccc(Br)cc3)c2=O)cc1 | . | 107
N#CC1=C(N)Oc2c(c(=O)oc3ccccc23)C1c1ccc(OC(=O)c2ccco2)cc1 (stereo not drawn) | . | 116
Cn1c(=O)n(CC(=O)N2CCC3(CC2)OCCO3)c(=O)c2ccccc21 | . | 116
CCOC(=O)C1=C(N)Oc2n[nH]c(C(C)(C)C)c2C12C(=O)Nc1ccc(Br)cc12 (stereo not drawn) | . | 112
CCC1(C)CC(CCNCc2ccccc2)(c2ccc(OC)cc2)CCO1 (stereo not drawn) | . | 115
COC(=O)C1C2c3ccccc3O[C@]1(C)N=c1s/c(=C/c3ccc(C(C)C)cc3)c(=O)n12 (stereo partly drawn) | . | 108
CCCn1c(=O)[nH]c2c(C(=O)N3CCC4(CC3)OCCO4)snc2c1=O | . | 106
Cc1ccc(Cn2cccc(C(=O)Nc3nc(C)cs3)c2=O)cc1 | . | 94
CC(=O)OCC1O[C@@H](n2cc(N(CCCl)CCCl)c(=O)[nH]c2=O)C(OC(C)=O)[C@H](OC(C)=O)[C@@H]1OC(C)=O (stereo partly drawn) | . | 121
O=C(O)C1C2c3ccccc3C(c3ccccc32)C1C(=O)NCc1ccccc1 (stereo not drawn) | . | 113
CCOC(=O)N(c1ccccc1)P1(=S)OCCC(C)O1 (stereo not drawn) | . | 109
O=C1CN(O)C(c2ccccc2)=c2cc(Cl)ccc2=N1 | . | 102
CC(C)CC(N)P(=O)(OC(C)C)OC(C)C (stereo not drawn) | . | 110
COC(=O)C1=C(C)OC(N)=C(C#N)C12C(=O)Nc1ccc(Br)cc12 (stereo not drawn) | . | 110
COc1cc(C2C(C#N)=C(N)Oc3c2c(=O)oc2ccccc32)cc(OC)c1OC(=O)N1CCOCC1 (stereo not drawn) | . | 104
CCCN1CC(C)C(OC(C)=O)(c2ccccc2)CC1C (stereo not drawn) | . | 113
CC1(C)COP(=S)(C(Nc2ccc([N+](=O)[O-])cc2)c2ccc(O)cc2)OC1 (stereo not drawn) | . | 116
CCOP(=O)(CN)OCC | . | 111
COc1ccc(OC)c(C2=NCC(=O)Nc3c2oc2ccc(Br)cc32)c1 | . | 106
CC12CC[C@H]3[C@@H](CCC4(O)C[C@H](O)CCC34/C=N/NC(=O)c3cc(O)c(O)c(O)c3)C1(O)CCC2C1=CC(=O)OC1 (stereo partly drawn) | . | 107
CCOC(=O)Cc1csc(NC(=O)c2c(O)c3ccccc3n(CCC(C)C)c2=O)n1 | . | 111
COc1ccc2c(c1)C1(CCN(C(=O)NC(C)C)C1)C(=O)N2 (stereo not drawn) | . | 110
CCOC(=O)COc1cc(C)cc2oc(=O)c3c(c12)CCCC3 | . | 112
CC(C)c1nnc2ccc(N3CCN(C)CC3)nn12 | . | 93
COc1cccc2c1NC(c1ccc([N+](=O)[O-])cc1)C1CC(Sc3ccccc3[N+](=O)[O-])C(Cl)C21 (stereo not drawn) | . | 104
CCOC(=O)C1=C(N)OC(c2ccccc2)=C(C(=O)OCC)C12C(=O)Nc1ccccc12 (stereo not drawn) | . | 124
O=[N+]([O-])c1ccccc1SC1CC2C(c3ccccc3)Nc3c(Cl)cc(Cl)cc3C2C1Cl (stereo not drawn) | . | 109
COc1ccc2c(c1)C1(CCN(S(=O)(=O)c3cc(OC)ccc3OC)C1)C(=O)N2C (stereo not drawn) | . | 101
CCC1(C)CC(CCNCc2ccc(OC)cc2)(c2ccc(OC)cc2)CCO1 (stereo not drawn) | . | 105
CC(=O)OC1N=C(c2ccc(Cl)cc2)c2cc(Br)ccc2NC1=O (stereo not drawn) | . | 107
CC(=O)OC1(c2ccccc2)CCN(C)C(C)C1C (stereo not drawn) | . | 102
COc1ccc(NC(=O)CCc2nc(C3=CCN(Cc4ccc(Cl)cc4)CC3)no2)cc1Cl | . | 107
COc1cc(C2C(C#N)=C(N)Oc3c2c(=O)oc2ccccc32)cc(OC)c1OC(=O)c1ccco1 (stereo not drawn) | . | 109
CN1C(=O)CN=C(c2ccccc2)c2cc(Br)ccc21 | . | 109
Cc1cccc(CN2CC=C(c3noc(CCC(=O)Nc4ccc(Br)cc4C)n3)CC2)c1 | . | 107
CCOC(=O)c1c(CN2CCN(c3ccccc3C)CC2)n(Cc2ccccc2)c2cc(Br)c(O)cc12 | . | 111
OC1C2CN3CN(C2)CC1(c1ccccc1)C3 (stereo not drawn) | . | 103
COc1ccc(C(=O)NCCN2CCN(C(=O)c3ccc(OC)c(OC)c3)CC2)cc1OC | . | 103

Among those listed so far, these contain a tert-butyl group.
SMILES | Sa growth inh | GIV Gai3 FP | others
COc1ccc2c(c1)C1(CCN(C(=O)NC(C)(C)C)C1)C(=O)N2C (stereo not drawn) | . | 102
CCOC(=O)C1=C(N)Oc2n[nH]c(C(C)(C)C)c2C12C(=O)Nc1ccc(Br)cc12 (stereo not drawn) | . | 112

Later entries:
SMILES | Sa growth inh | GIV Gai3 FP | others
O=C1CN=C(c2ccccc2Cl)c2cc(Br)ccc2N1 | . | 104
COc1ccccc1N1C(=O)CC(=O)NC1=S | . | 119
COC(=O)C1=C(N)OC2=C(C(=O)CC(C)(C)C2)C12C(=O)Nc1ccccc12 (stereo not drawn) | . | 108
O=C(Cc1ccc(F)cc1)N1CCN(Cc2noc(-c3ccccc3)n2)CC1 | . | 104
O=C(Nc1nc2ccc(Br)cc2s1)c1c(O)c2c(n(Cc3ccco3)c1=O)CCCC2 | . | 119
CCCC(=O)NC1=C(C(=O)OCC)C2(CCCC2)Cc2ccccc21 | . | 105
Cc1cccc(CN2CC=C(c3noc(CCC(=O)N4CCCc5ccccc54)n3)CC2)c1 | . | 129
C=CCOC(=O)C1=C(C)OC(N)=C(C#N)C12C(=O)Nc1ccc([N+](=O)[O-])cc12 (stereo not drawn) | . | 103
COc1cc(C2C(C#N)=C(N)Oc3c2c(=O)oc2ccccc32)cc(OC)c1OC(=O)c1ccccc1 (stereo not drawn) | . | 111
COc1ccc2c(c1)C1(CCN(C(=O)NCCC(C)C)C1)C(=O)N2 (stereo not drawn) | . | 105
O=C(CSCc1nc2ccccc2c(=O)n1-c1ccccc1Cl)Nc1ccccc1 | . | 103
CN1C(=O)c2ccccc2Oc2ccc(C(=O)N3CCC4(CC3)OCCO4)cc21 | . | 98
O=C(Nc1nc(C23CC4CC(CC(C4)C2)C3)cs1)c1c(O)c2c(n(Cc3ccco3)c1=O)CCCC2 | . | 114
O=C(Nc1nccs1)c1cccn(Cc2cccc(Cl)c2)c1=O | . | 108
CCOC(=O)C1=C(NC(=O)CC)c2ccccc2CC12CCCCC2 | . | 107

Already shown: 3 of the compounds above.
SMILES | Sa growth inh | GIV Gai3 FP | others
O=C(Cc1ccc(F)cc1)N1CCN(Cc2noc(-c3ccccc3)n2)CC1 | . | 104
O=C(Nc1nc2ccc(Br)cc2s1)c1c(O)c2c(n(Cc3ccco3)c1=O)CCCC2 | . | 119
CCCC(=O)NC1=C(C(=O)OCC)C2(CCCC2)Cc2ccccc21 | . | 105

Going on with the list.
SMILES | Sa growth inh | GIV Gai3 FP | others
OC12CCCCC1C(c1ccccc1)NCC2 (stereo not drawn) | . | 125
CCOC(=O)c1c(CN2CCC(C(=O)OCC)(c3ccccc3)CC2)n(-c2ccccc2)c2ccc(O)cc12 | . | 110
CCOC(=O)CCCN1CCC2=C(C1)c1c(O)cc(C(C)CCCc3ccc(F)cc3)cc1OC2(C)C (stereo not drawn) | . | 109
COc1ccc2c(c1)C1(CCN(C(=O)NCCC(C)C)C1)C(=O)N2C (stereo not drawn) | . | 101
CS(=O)(=O)OC1CSC[C@H]1NC(=O)c1ccccc1 (stereo partly drawn) | . | 103
CCN1CCCC2(C1)N=C(c1ccccc1)C(=O)N2 (stereo not drawn) | . | 106
COc1cccc(CC(=O)N2CCN(Cc3noc4ccccc34)CC2)c1 | . | 103
O=C1NC(=O)N(c2ccccc2F)C(=O)/C1=C\c1ccc(Oc2ccc([N+](=O)[O-])cn2)cc1 | . | 99
CCCCCCCc1cc(O)c2c3c(c(=O)oc2c1)CCC(C)C3 (stereo not drawn) | . | 114
O=[N+]([O-])c1cc2c3c(c1)C(c1ccccc1)(c1ccccc1)CCN3CCC2(c1ccccc1)c1ccccc1 | . | 104
COc1cc(OC)cc(C(=O)N2CCC3(C2)C(=O)N(C)c2ccc(OC)cc23)c1 (stereo not drawn) | . | 106
CC(C)(C)C(C(Oc1ccc(Cl)cc1)n1cncn1)n1nnnc1C1(N)CCCCC1 (stereo not drawn) | . | 104
O=C(Cc1ccccc1)N1CCN(CCN=Cc2c(-c3ccccc3)[nH]n(-c3ccc([N+](=O)[O-])cc3)c2=O)CC1 | . | 100
O=C(NC1CN2CCC1CC2)c1cc(-c2ccc(Cl)cc2)nc2ccccc12 (stereo not drawn) | . | 115
N#CC1=C(N)Oc2c(c(=O)oc3ccccc23)C1c1cc(Br)ccc1F (stereo not drawn) | . | 113

Random excerpt: 3 compounds from above, in no set order.
SMILES | Sa growth inh | GIV Gai3 FP | others
CC(=O)OCC1O[C@@H](n2cc(N(CCCl)CCCl)c(=O)[nH]c2=O)C(OC(C)=O)[C@H](OC(C)=O)[C@@H]1OC(C)=O (stereo partly drawn) | . | 121
Cc1cccc(CN2CC=C(c3noc(CCC(=O)N4CCCc5ccccc54)n3)CC2)c1 | . | 129
N#CC1=C(N)Oc2c(c(=O)oc3ccccc23)C1c1cc(Br)ccc1F (stereo not drawn) | . | 113

Continued.
SMILES | Sa growth inh | GIV Gai3 FP | others
CCCC1=C(C(=O)OCC)C2(C(=O)Nc3ccc(C)cc32)C(C#N)=C(N)O1 (stereo not drawn) | . | 109
CCOP(=O)(C(NC(=O)c1ccc(Cl)cc1)=C(Cl)Cl)c1ccccc1 (stereo not drawn) | . | 109
COc1ccc(C(=O)N/N=C/C23CC[C@@H](O)CC2(O)CC[C@@H]2[C@@H]3CCC3(C)C(C4=CC(=O)OC4)CCC23O)cc1 (stereo partly drawn) | . | 96
O=C(c1ccccc1)c1cc(Cl)cc2c1NC(c1ccc(Br)cc1)C1CC(Sc3ccccc3[N+](=O)[O-])C(Cl)C21 (stereo not drawn) | . | 108
COc1ccc(CC(=O)N2CCN(Cc3noc4ccccc34)CC2)cc1OC | . | 109
COCCCNC(=O)N1CCC2(C1)C(=O)Nc1ccc(OC)cc12 (stereo not drawn) | . | 109
Cc1nc(-c2ccccc2)nc2c1CC(=O)N2CCN1CCOCC1 | . | 105
CC(C)=CCOc1cc(C)cc2oc(=O)c3c(c12)CCCC3 | . | 105
O=C(CCc1nc(C2=CCN(Cc3cccc(Cl)c3)CC2)no1)Nc1ccc(F)cc1 | . | 107
CC12CC[C@H]3[C@@H](CCC4(O)C[C@H](O)CCC34/C=N/NC(=O)c3ccc([N+](=O)[O-])cc3Cl)C1(O)CCC2C1=CC(=O)OC1 (stereo partly drawn) | . | 108
CCCCNC(=S)N1CC2CC(C1)c1cccc(=O)n1C2 (stereo not drawn) | . | 111
Cc1cccc(OCC(=O)N2CCN(CC(=O)Nc3nnc(-c4ccccc4)s3)CC2)c1C | . | 100

High-throughput results from PubChem BioAssay.
